# Assay outcomes deposited in PubChem by ICCB-Longwood Screening Facility, Harvard Medical School.
# Polio RdRp inh: inhibitors of poliovirus RNA polymerase binding and polymerization; 0.66% of 150,000 active; P03300; poliovirus polymerase elongation, fluorescence polarization; stronger effect = lower value; % elongation, % (compound at 16.7 µg/mL); AID 588519; in the data active = % elongation below about 90%; also: some results filed as inactive read as strong as hits
# Target sequence (P03300 1749-2209 limits assumed): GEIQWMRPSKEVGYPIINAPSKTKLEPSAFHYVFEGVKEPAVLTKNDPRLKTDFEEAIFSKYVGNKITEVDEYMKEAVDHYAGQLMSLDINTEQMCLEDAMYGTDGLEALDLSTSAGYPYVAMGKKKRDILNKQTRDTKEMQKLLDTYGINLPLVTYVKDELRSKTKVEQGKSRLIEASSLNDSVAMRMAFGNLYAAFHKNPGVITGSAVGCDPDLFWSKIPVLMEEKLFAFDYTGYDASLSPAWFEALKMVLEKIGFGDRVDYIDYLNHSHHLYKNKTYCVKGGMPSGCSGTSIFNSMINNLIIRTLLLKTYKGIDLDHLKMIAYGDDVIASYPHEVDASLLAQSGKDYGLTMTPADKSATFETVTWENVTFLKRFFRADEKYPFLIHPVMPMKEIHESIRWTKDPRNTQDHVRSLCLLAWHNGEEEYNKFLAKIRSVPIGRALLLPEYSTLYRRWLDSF
# Polio RdRp inh intensity: further read-out of Polio RdRp inh, marked with its call; % elongation; measured here: total intensity read-out; formula for this scale not given here;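 total fluorescence in place of polarization; lower means less elongation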
# Active calls of the source: *. These rows are one share of the data. The share of hits here may be higher or lower than overall.
# Each structure is followed by: Polio RdRp inh | Polio RdRp inh intensity
CCOC(=O)C1CCN(c2ncnc3c2c(-c2ccccc2)cn3-c2cccc(C)c2)CC1
→ 110.0 | 113.0
COC(=O)c1ccc(NC(=O)CC2C(=O)N(c3ccc(F)cc3)C(=O)N2Cc2ccc(OC)cc2)cc1 (configuration not stated)
→ 118.0 | 116.0
COc1cccc(CNC(=O)c2cnc3c(-c4ccc(F)cc4)c(C)nn3c2C)c1
→ 114.0 | 111.0
CCCCN(C)CCNC(=O)c1cc(-c2cccnc2)nc2ccc(S(=O)(=O)N3CCC(C)CC3)cc12
→ 105.0 | 111.0
Cc1cc(C)nc(NS(=O)(=O)c2ccc(NC(=O)COc3ccc(C(C)(C)C)cc3)cc2)n1
→ 107.0 | 107.0
CCOc1ccc(CNC(=O)C2=Cc3cccc(OC)c3OC2)cc1
→ 110.0 | 112.0
CN(C)c1ccc(C(CNC(=O)c2ccccc2Cl)N2CCCC2)cc1 (configuration not stated)
→ 108.0 | 115.0
CC1CCCCN1CCCNC(=O)Cn1ncc2c([nH]c3ccccc32)c1=O (configuration not stated)
→ 110.0 | 104.0
CC(C)CCNC(=O)Cn1c(-c2cccs2)cc2cc(F)ccc21
→ 116.0 | 118.0
COc1cccc(CNC(=O)C(=O)Nc2ccc3nc4n(c(=O)c3c2)CCCCC4)c1
→ 112.0 | 110.0
CCCc1cc(=O)[nH]c(Nc2ccc(C)c(O)c2)n1
→ 103.0 | 104.0
CCOC(=O)c1c(NC(=O)c2ccc(S(=O)(=O)N(C)C)cc2)sc2c1CCN(C)C2
→ 99.0 | 80.0
Cc1ccc(NC(=O)Cn2cc(S(=O)(=O)N3CCCC3)c(S(=O)(=O)N3CCCC3)c2)c(C)c1
→ 110.0 | 115.0
C=Cc1ccc(Cn2c(C)c(CNCc3ccccc3C)c(C(=O)O)c2C)cc1
→ 105.0 | 104.0
CCc1ccc(CNC(=O)Cn2nc(-c3ccc(C)cc3)ccc2=O)cc1
→ 113.0 | 111.0
COc1cccc(C(=O)n2nc(-c3cccnc3)nc2NCc2ccc(F)cc2)c1
→ 99.0 | 106.0
CCCSc1ncc(Cl)c(C(=O)N(Cc2ccc(N(C)C)cc2)C2CCS(=O)(=O)C2)n1 (configuration not stated)
→ 107.0 | 94.0
COc1ccccc1CNc1nccn(-c2ccccc2)c1=O
→ 99.0 | 100.0
Cc1ccc(CNC(C)c2ccccc2)s1 (configuration not stated)
→ 106.0 | 103.0
Cc1ccc(CN(C(=O)COc2ccc(F)cc2)C2CCS(=O)(=O)C2)o1 (configuration not stated)
→ 115.0 | 114.0
COc1ccc(-c2csc3ncnc(Nc4cccc(F)c4)c23)cc1
→ 98.0 | 105.0
COc1ccccc1C(=O)Nc1nc2n(n1)C(c1ccc(F)cc1)C=C(c1ccc(Cl)cc1)N2 (configuration not stated)
→ 95.0 | 284.0
CCOc1ccccc1C(=O)N(Cc1sccc1C)C1CCS(=O)(=O)C1 (configuration not stated)
→ 114.0 | 110.0
Cc1cc(C)c2c(n1)sc1c(=O)n(-c3ccccc3C(F)(F)F)nnc12
→ 104.0 | 107.0
Cc1c(-c2nsc(NC(=O)c3cccc(Cl)c3)n2)nnn1-c1ccccc1C(F)(F)F
→ 108.0 | 113.0
CS(=O)(=O)N(Cc1ccccc1)c1ccc(C(=O)Nc2ccc(Cl)cc2)cc1
→ 105.0 | 104.0
COc1ccc(NC(=O)c2ccco2)cc1NC(=O)C(C)Oc1ccc(Cl)cc1Cl (configuration not stated)
→ 108.0 | 108.0
CCOC(=O)c1c(NC(=O)COc2ccc(Br)cc2)sc2c1CCCC2
→ 100.0 | 105.0
COc1ccc(NC(=O)CSc2nc3nc(C)c(Cc4ccc(C)cc4)c(C)n3n2)cc1OC
→ 103.0 | 108.0
CCc1ccc(C(=O)c2cn(CC(=O)Nc3ccc4c(c3)OCO4)c3ccc(OC)cc3c2=O)cc1
→ 107.0 | 112.0

# 3 of these compounds, set out differently.
SMILES	Polio RdRp inh	Polio RdRp inh intensity
COc1cccc(CNC(=O)c2cnc3c(-c4ccc(F)cc4)c(C)nn3c2C)c1	114.0	111.0
CCCCN(C)CCNC(=O)c1cc(-c2cccnc2)nc2ccc(S(=O)(=O)N3CCC(C)CC3)cc12	105.0	111.0
Cc1cc(C)nc(NS(=O)(=O)c2ccc(NC(=O)COc3ccc(C(C)(C)C)cc3)cc2)n1	107.0	107.0

# Following part
# Each structure is followed by: Polio RdRp inh | Polio RdRp inh intensity
CCC1CN(C(=O)N2CCC(C(=O)NCCc3ccc(OC)cc3OC)CC2)c2cc(C)ccc2O1 (configuration not stated)
→ 103.0 | 96.0
Cc1c(C(=O)Nc2ccccc2Br)oc2ccc(S(=O)(=O)N3CCCCC3)cc12
→ 104.0 | 107.0
Cc1cccc(C(=O)NC(=O)Nc2ccc(-n3nc(C(F)(F)F)cc3C(F)(F)F)cc2)c1
→ 106.0 | 109.0
O=C(NCCc1ccccc1)C(=O)NCC(c1cccnc1)N1CCN(c2ccc(F)cc2)CC1 (configuration not stated)
→ 107.0 | 100.0
Cc1ccc(-c2noc(-c3ccc(NCc4cccnc4)c([N+](=O)[O-])c3)n2)cc1
→ 105.0 | 106.0
Cc1ccc2nc(CSc3nnc(NC(=O)COc4ccccc4F)s3)cc(=O)n2c1
→ 104.0 | 106.0
O=C(Nc1cnc(N2CCN(c3ccccc3)CC2)c(C(=O)O)c1)c1cccs1
→ 106.0 | 105.0
Cc1cc(Cl)ccc1NC(=O)C(=O)NCc1ccco1
→ 101.0 | 98.0
COc1cc(Br)c(C2CC(=O)Nc3cc(OC)c(OC)c(OC)c32)cc1OC (configuration not stated)
→ 107.0 | 110.0
O=C(Nc1ccccc1Cl)C1CCN(c2nc3ccccc3[nH]2)CC1
→ 104.0 | 110.0
COc1cccc(N2CCN(C(=O)CCS(=O)(=O)c3ccc4c(c3)oc(=O)n4C)CC2)c1
→ 107.0 | 111.0
CCOC(=O)Cc1ccc(NC(=O)N2CCSc3ccccc32)cc1
→ 102.0 | 107.0
CCOCCc1nn2c(=O)cc(COC(=O)c3ccc(NC(=O)c4cccs4)cc3)nc2s1
→ 106.0 | 89.0
Cc1ccc(Cl)cc1N1CCN(C(=O)C2CCN(S(=O)(=O)c3cn(C)cn3)CC2)CC1
→ 106.0 | 111.0
CC1CCN(c2oc(/C=C/c3ccc(F)cc3)nc2C#N)CC1
→ 106.0 | 113.0
COc1ccc(Cl)cc1NC(=O)c1cc(C)nn1-c1ccccc1
→ 109.0 | 106.0
CCOc1ccc(CN2C(=O)c3ccccc3Sc3ccc(C(=O)NCc4ccc5c(c4)OCO5)cc32)cc1
→ 113.0 | 113.0
COc1ccccc1-c1noc(-c2ccc(NC3CCCC3)c([N+](=O)[O-])c2)n1
→ 105.0 | 106.0
CCN1C(=O)c2ccccc2Sc2ccc(C(=O)NCCCN(CC(C)C)CC(C)C)cc21
→ 113.0 | 114.0
COc1ccc(OC)c(CNC(=O)c2nn(C)c3c2CSc2ccccc2-3)c1
→ 114.0 | 101.0
Cc1ccc(C)c(CNC(=O)c2ccc3c(c2)nc2n3CCCCC2)c1
→ 109.0 | 114.0
COc1ccc(CNc2nc3c(S(=O)(=O)c4ccccc4)nnn3c3ccc(Cl)cc23)cc1
→ 102.0 | 94.0
CCOC(=O)c1cnc2ccc(OCC)cc2c1N1CCN(c2cccc(Cl)c2)CC1
→ 109.0 | 109.0
CCOc1ccc(CCNC(=O)Cn2ncn3c(cc4sc(C)cc43)c2=O)cc1OCC
→ 108.0 | 109.0
Cc1ccccc1C(=O)Nc1ccccc1OCc1cc(=O)n2ccccc2n1
→ 104.0 | 105.0
CC(=O)N1CCc2cc(CNS(=O)(=O)c3ccc(C(C)(C)C)cc3)ccc21
→ 104.0 | 107.0
Cc1cccc(Cn2c(CN3CCC(C(=O)NC(C)C)CC3)cc3ccccc32)c1
→ 115.0 | 114.0
O=C(NCCCN1CCN(c2ccccc2)CC1)c1ccc2nc(Cc3ccccc3)oc2c1
→ 97.0 | 95.0
COc1ccc(CNS(=O)(=O)c2cc3c(cc2Cl)N(C(C)=O)CCO3)cc1
→ 105.0 | 105.0
CCOc1cc(C2c3c(-c4ccc(Br)cc4)n[nH]c3C(=O)N2c2ccc(Cl)cc2)ccc1O (configuration not stated)
→ 111.0 | 111.0
CCCSCCCNC(=O)CN1C(=O)COc2ccc(S(=O)(=O)N3CCCC3)cc21
→ 107.0 | 106.0
O=C(NCc1ccccc1Cl)c1ccc(NC(=O)N2CCSc3ncccc32)cc1
→ 106.0 | 108.0
Cc1cc(OCC(=O)Nc2ncn[nH]2)c(C)c(C)c1Br
→ 107.0 | 108.0
Cc1ccc(C(=O)c2cn(Cc3c(F)cccc3Cl)c3nc(C)ccc3c2=O)cc1
→ 102.0 | 118.0
Cc1cccc(NC(=O)Cn2cc(S(=O)(=O)N3CCCC3)c(S(=O)(=O)N3CCCC3)c2)c1C
→ 102.0 | 99.0
CCOC(=O)Cn1c(=O)cc(C)c2c(C)nn(-c3cccc(F)c3)c21
→ 100.0 | 98.0
O=C(Nc1ccc(-c2cn3cccnc3n2)cc1)c1cc(Br)ccc1Cl
→ 103.0 | 106.0
Cc1ccc(C)c(S(=O)(=O)Nc2ccc3c(c2)CCCN3C(=O)c2cccs2)c1
→ 109.0 | 117.0
COc1ccc(CNC(=O)c2cc3sccc3n2Cc2ccc(C)cc2)cc1
→ 102.0 | 110.0
O=C(Cn1c(=O)oc2cc(S(=O)(=O)NC3CCCC3)ccc21)Nc1ccc(F)c(F)c1
→ 107.0 | 111.0
CCOc1ccccc1C(=O)N(Cc1ccc(N(C)C)cc1)CC1CCCO1 (configuration not stated)
→ 110.0 | 111.0
O=C(NC1CCCCCC1)c1cc2c(Cl)nc3ccccc3c2s1
→ 106.0 | 110.0
Cc1c2cnn(CC(=O)Nc3ccc(F)cc3F)c(=O)c2c(C)n1Cc1cccc(Cl)c1
→ 107.0 | 105.0
COc1cccc2c1cc1c(=O)n(CC(=O)N3CCN(c4cc(Cl)ccc4C)CC3)nc(C)n12
→ 107.0 | 110.0
O=C(Cn1c(=O)n(CC2CCCO2)c(=O)c2ccccc21)Nc1ccc(F)cc1F (configuration not stated)
→ 106.0 | 110.0
COc1ccc(-c2noc(CN(C(=O)Cc3ccc(C)cc3)C(C)C)n2)cc1
→ 106.0 | 109.0
Cc1ccc(NC(=O)Cn2c(=O)n(Cc3ccc(C(=O)NCc4ccc5c(c4)OCO5)cc3)c(=O)c3ccccc32)cc1
→ 107.0 | 112.0
Cc1ccc(CCNS(=O)(=O)c2ccc3c(c2)CC(C)N3C(=O)C2CCC2)cc1 (configuration not stated)
→ 109.0 | 105.0
COc1ccc(C(=O)N(c2ccc(OC)cc2)S(=O)(=O)c2ccc3c(c2)n(C)c(=O)n3C)cc1
→ 109.0 | 109.0
COc1ccc(CCNC(=O)c2ccc(Cn3c(=O)c4ccccc4n(Cc4cccc(C)c4)c3=O)cc2)cc1OC
→ 105.0 | 107.0

# (more compounds)
# Each structure is followed by: Polio RdRp inh | Polio RdRp inh intensity
O=C(NCc1ccccc1Cl)c1ccc2c(c1)N(Cc1ccccc1)C(=O)CS2
→ 114.0 | 114.0
CCOC(=O)c1scc(-c2ccc(C)cc2)c1S(=O)(=O)Nc1ccc(F)c(F)c1
→ 105.0 | 108.0
CC(Oc1ccccc1Cl)C(=O)N1CCN(CCc2ccccn2)CC1 (configuration not stated)
→ 110.0 | 95.0
O=C(CSc1nc(=O)n(CCN2CCOCC2)c2c1CCC2)Nc1ccc(F)cc1F
→ 110.0 | 101.0
O=C(CCSCc1cccc(Cl)c1)NCCc1ccc(Cl)cc1
→ 112.0 | 116.0
CC(C)(C)c1ccc(CN(Cc2ccco2)c2cnc(S(C)(=O)=O)nc2C(=O)Nc2ccc(F)cc2)cc1
→ 107.0 | 93.0
CC(=O)N1CCCc2cc(S(=O)(=O)N3CCC(C(=O)NCc4ccc(N(C)C)cc4)CC3)ccc21
→ 106.0 | 112.0
CCN1C(=O)c2ccccc2S(=O)c2ccc(C(=O)NCc3ccc(C)cc3)cc21 (configuration not stated)
→ 106.0 | 108.0
CCCN(CCC)CCNC(=O)c1nn(C)c2c1CS(=O)(=O)c1ccccc1-2
→ 109.0 | 109.0
O=C(Cn1cc(C(=O)c2ccco2)c2ccccc21)Nc1ccc(Br)cc1
→ 109.0 | 108.0
Cc1oc(-c2ccccc2Cl)nc1CS(=O)(=O)CC(=O)NC(C)c1ccccc1 (configuration not stated)
→ 102.0 | 104.0
COc1ccc(OC)c(S(=O)(=O)Nc2cccc(-c3ccc(N4CCCCC4)nn3)c2)c1
→ 85.0* | 84.0*
Cc1cccc(C(=O)Nc2sc3c(c2C(=O)O)CCCC3)c1
→ 105.0 | 109.0
Cc1ccc(C)c(CN2C(=O)c3ccccc3S(=O)(=O)c3ccc(C(=O)N4CCN(c5ccccc5)CC4)cc32)c1
→ 102.0 | 104.0
CCOc1ccc(S(=O)(=O)NCC(c2ccco2)S(=O)(=O)c2cccs2)cc1 (configuration not stated)
→ 108.0 | 113.0
Cc1cccc(C(=O)Nc2cc(-c3ccccc3F)nn2-c2ccccc2)c1
→ 103.0 | 108.0
CCOC(=O)C1CCN(S(=O)(=O)c2cc(-c3cc(C)no3)ccc2C)CC1
→ 111.0 | 113.0
Cc1ccc(CNC(=O)CCS(=O)(=O)c2ccc3c(c2)CC(C)N3C(=O)C2CC2)cc1 (configuration not stated)
→ 110.0 | 111.0
Cc1noc2ncnc(N3CCCC(C(=O)NCCC(C)C)C3)c12 (configuration not stated)
→ 110.0 | 108.0
Cc1ccc(Cn2c(=O)n(CCCCC(=O)NCc3ccc4c(c3)OCO4)c(=O)c3ccccc32)cc1
→ 104.0 | 106.0
Fc1ccccc1CNCCCSc1nnnn1-c1ccccc1
→ 106.0 | 99.0
COc1cc(C2CC(=O)Nc3c2c(=O)[nH]c2nc4ccccc4n32)ccc1O (configuration not stated)
→ 102.0 | 101.0
Cc1ccccc1NC(=O)CC1C(=O)NCCN1C(=O)c1cccc(Cl)c1 (configuration not stated)
→ 107.0 | 113.0
CCCCCn1c(NCc2ccccc2OC)nc2ccccc21
→ 102.0 | 105.0
CCCCNc1ncnc2c1nnn2C
→ 104.0 | 103.0
O=C(NC1CCCC1)c1ccc2c(=O)n(Cc3ccccc3)c(SCc3cccc(F)c3)nc2c1
→ 101.0 | 109.0
CCN(CC)C(=O)c1sc2c(c1C)c(=O)n(CCc1ccccc1)c(=O)n2Cc1cc(C)ccc1C
→ 108.0 | 109.0
